Assay outcomes as filed in PubChem.
EPAC2 antag = Validation qHTS for antagonist of cAMP-regulated guanine nucleotide exchange factor 4 (EPAC2). EPAC2 Rap1B BODIPY-GDP exchange, fluorescence. Potency, µM (titrated, usually from 112 µM), for the others: at the highest dose activity, negative = inhibition, actives largely listed as inhibitors. 16,000 tested, 1.7% active. AID 1645886, 2021; active = well fitted inhibition curve with a large enough effect; inconclusive = small, poorly fitted or top-dose-only effect; inactive = no such curve, though single readings can be large or run the other way;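 also: 100% = activation by cAMP agonist control; nearly all actives have a fitted effect of over 40% in size; the record reuses the description of the EPAC1 agonist screen; inactives centre near -10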
Target sequence (Q8WZA2 whole entry, looked up): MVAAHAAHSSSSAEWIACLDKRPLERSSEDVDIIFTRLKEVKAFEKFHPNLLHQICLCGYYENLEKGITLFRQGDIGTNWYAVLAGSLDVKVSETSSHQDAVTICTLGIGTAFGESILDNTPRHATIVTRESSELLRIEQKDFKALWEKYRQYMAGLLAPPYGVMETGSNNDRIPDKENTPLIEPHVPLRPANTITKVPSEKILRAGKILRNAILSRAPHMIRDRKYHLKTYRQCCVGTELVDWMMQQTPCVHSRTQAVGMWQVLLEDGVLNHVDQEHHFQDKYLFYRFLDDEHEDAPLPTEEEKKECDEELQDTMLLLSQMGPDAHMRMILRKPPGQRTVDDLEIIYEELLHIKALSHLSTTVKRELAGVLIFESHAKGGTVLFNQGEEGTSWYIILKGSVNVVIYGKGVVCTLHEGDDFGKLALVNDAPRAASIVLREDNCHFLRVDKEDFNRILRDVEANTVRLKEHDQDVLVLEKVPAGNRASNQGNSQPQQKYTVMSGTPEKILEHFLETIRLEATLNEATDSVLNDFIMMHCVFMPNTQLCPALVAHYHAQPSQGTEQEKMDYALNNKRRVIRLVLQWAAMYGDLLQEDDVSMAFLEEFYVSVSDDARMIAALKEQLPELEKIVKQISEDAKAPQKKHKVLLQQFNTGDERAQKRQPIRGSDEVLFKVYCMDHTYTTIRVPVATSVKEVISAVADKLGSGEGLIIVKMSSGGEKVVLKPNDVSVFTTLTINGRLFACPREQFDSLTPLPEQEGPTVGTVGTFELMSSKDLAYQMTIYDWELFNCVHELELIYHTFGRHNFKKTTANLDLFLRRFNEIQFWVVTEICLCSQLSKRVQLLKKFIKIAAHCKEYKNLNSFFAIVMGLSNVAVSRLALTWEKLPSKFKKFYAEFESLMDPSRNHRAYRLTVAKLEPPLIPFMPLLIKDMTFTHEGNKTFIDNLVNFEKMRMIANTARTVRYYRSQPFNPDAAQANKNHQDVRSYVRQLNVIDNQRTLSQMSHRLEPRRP
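Normalized against a 6.5 mM cAMP agonist control, compounds were tested on 100 nM EPAC2 exchanging Rap1B-bound BODIPY-GDP (250 nM) for 50 uM GDP. Fluorescence drop (ex 480, em 540 nm) was tracked at room temperature over 30 min at 5-min intervals.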
Active calls of the source: *; ? = inconclusive; & = joins results of further samples; [ ] = another dose, or the depositor's remark. Potency is read from the fitted curve at half-maximal effect.

The opening four records, to show the layout:
SMILES	EPAC2 antag
COCc1c(C(=O)N2CCN(C)CC2)cnn1-c1ncc2c(n1)-c1ccccc1CCC2	4%
O=C(NC1CCCC1)c1cn(C2CCN(Cc3cccc4cccnc34)CC2)nn1	-3%
CCn1c(=O)[nH]c2ccccc21	-14%
O=C(c1ccco1)N1CCC2(CC1)CN(c1cccc(-c3ccccc3)c1)C2	?

Main list, from the first entry:
SMILES	EPAC2 antag
COCc1c(C(=O)N2CCN(C)CC2)cnn1-c1ncc2c(n1)-c1ccccc1CCC2	4%
O=C(NC1CCCC1)c1cn(C2CCN(Cc3cccc4cccnc34)CC2)nn1	-3%
CCn1c(=O)[nH]c2ccccc21	-14%
O=C(c1ccco1)N1CCC2(CC1)CN(c1cccc(-c3ccccc3)c1)C2	?
COc1cccc(Nc2ncc3nc(CCc4ccccc4)c(=O)n(C4CC4)c3n2)c1	?
CN1CCc2cccc3c2[C@H]1Cc1ccc(O)c(O)c1-3	-10%&-17%
Cc1c(C(=O)N2CCCC(c3ccccc3)C2)sc2ncnc(NCCc3ccccn3)c12 (stereo unspecified)	?
O=C(CCCN1CCN(c2ccccn2)CC1)c1ccc(F)cc1	6%&-11%
CCc1oc2ccccc2c1C(=O)c1cc(I)c(O)c(I)c1	63µM*
CC(=O)O[C@H]1C(=O)[C@@]2(C)[C@H]([C@H](OC(=O)c3ccccc3)[C@]3(O)C[C@H](OC(=O)[C@H](O)[C@@H](NC(=O)c4ccccc4)c4ccccc4)C(C)=C1C3(C)C)[C@]1(OC(C)=O)CO[C@@H]1C[C@@H]2O	?
CN(Cc1cccc2ncccc12)C(=O)c1cnn(-c2nccc(-c3ccccc3F)n2)c1C1CC1	?
NCC1CCC(C(=O)Oc2ccc(CCC(=O)O)cc2)CC1 (stereo unspecified)	-20%
COCc1ccc(CN2CCOc3c(cc(-c4ccc(SC)cc4)cc3OC)C2)o1	-10%
N#C/C(=C1/SC[C@@H](c2ccc(Cl)cc2Cl)S1)n1ccnc1	?
O=C(c1cccnc1)C1CCCN(Cc2ccc3c(c2)CN(C(=O)c2cnccn2)CCO3)C1 (stereo unspecified)	-17%
Cc1ccc2c(c1)CN(C(=O)CC(c1ccccc1)c1ccco1)CC(C)O2 (stereo unspecified)	?
COc1cccc(Cn2c(=O)c(-c3cccc(C#N)c3)nc3cnc(OC)nc32)c1	5%
Nc1ncnc2c1ncn2[C@@H]1O[C@H](C(=O)NC2CC2)[C@@H](O)[C@H]1O	-2%
O=C1c2ccccc2S(=O)(=O)N1CCCCN1CCN(c2ncccn2)CC1	-21%
Cc1noc(C)c1-c1nccc(Nc2ccc(F)cc2)n1	-13%
C=CC(C)(C)c1[nH]c2ccccc2c1C1=C(O)C(=O)C(c2c[nH]c3c(CC=C(C)C)cccc23)=C(O)C1=O	45µM*
COc1ccc(NC(=O)N2CCC3(CC2)CCN(C(=O)c2ccco2)CC3)cc1	-12%
CCCOC(=O)c1cc(O)c(O)c(O)c1	21%
CCOC(=O)n1ccn(C)c1=S	-8%[56.6 µM]
O=C(CC(=O)c1ccccc1)c1ccccc1	-29%
COc1ccccc1C1CN(Cc2cccc(C)n2)Cc2ccccc2O1 (stereo unspecified)	?
N#C/C(=C\c1c[nH]c2ccccc12)C(=O)c1ccc(O)c(O)c1	-3%
Cc1c(CN2CCOc3c(cc(-c4ncc(C(F)(F)F)cc4Cl)cc3OCC3CCCO3)C2)cnn1C (stereo unspecified)	-26%
Cc1cc(C)c2ccccc2n1	-16%
CN(CC1COCCO1)C(=O)c1cnn(-c2ncc3c(n2)-c2ccccc2CCC3)c1C1CC1 (stereo unspecified)	1%
COc1cc(/C=C/C(=O)N2CCCCC2=O)cc(OC)c1OC	-7%
C(=C\c1nccc2ccccc12)/c1ccc(N2CCOCC2)cc1	6%
COc1ccccc1CNc1ncnc2ccc(-c3cccc(C#N)c3)cc12	-20%
Cc1cc(COC(=O)C2N3C(=O)[C@@H](NC(=O)COc4ccccc4)[C@H]3SC2(C)C)on1 (stereo partly specified)	-11%
Cc1nc2cnc(N3CCNCC3)nc2n(-c2ccccc2)c1=O	-15%
O=C(C[n+]1ccncc1Cl)c1ccc(F)cc1	-12%
CC1(C)C(OC(=O)CCC(=O)O)CC[C@]2(C)C1CC[C@@]1(C)C2C(=O)C=C2[C@@H]3C[C@@](C)(C(=O)O)CC[C@]3(C)CCC21C (stereo partly specified)	4µM*
Cn1cccc1C(=O)N1CCC2(CCCN(C(=O)Nc3cccc(F)c3)C2)CC1	-27%
O=Cc1c2[nH]c3ccccc3c2cc2[nH]c3ccccc3c12	?
CC(C)(C)NCC(O)c1ccc(O)c(CO)n1 (stereo unspecified)	0%
COc1cc([C@@H]2c3cc4c(cc3[C@@H](O[C@@H]3O[C@H]5CO[C@@H](C)O[C@@H]5[C@@H](O)[C@H]3O)[C@@H]3COC(=O)[C@@H]23)OCO4)cc(OC)c1O	-26%
Cc1cc(C(=O)NCCc2ccc(S(=O)(=O)NC(=O)NN3CCCCCC3)cc2)no1	16%
COc1cccc(CNC(=O)c2c(OC)cc(=O)n3c2CCN(C(=O)c2csc(C)n2)CC3)c1	-3%
COc1ccc2cc3[n+](cc2c1OC)CCc1cc2c(cc1-3)OCO2	-10%&8%
CC(NC(=O)c1cc(F)ccc1F)c1nnc2n1CCN(Cc1ccco1)CC2 (stereo unspecified)	-16%
CC(C)[C@@H](COc1ccccc1)N1CCN(Cc2ccccc2)CCC1=O	?
COC(=O)C1=C(C(=O)OC)[C@]2([C@@H]3C/C=C\CN[C@@H](Cc4ccccc4)C(=O)N3Cc3ccccc3)C=C[C@H]1O2	-25%
Nc1c2c(nc3c1CCC3)CCCC2	-8%
CCc1cc(C(=O)NCc2c(C)ncc3c2CCN(C(=O)C2=CCCC2)C3)no1	10%
C[C@@H]1C[C@@H]2[C@H]3CCC4=CC(=O)C=C[C@]4(C)[C@]3(F)[C@@H](O)C[C@@]2(C)[C@@]1(O)C(=O)CO	-15%
COc1ccc2c(c1)OC/C(=C/c1ccc(OC)c(OC)c1)C2=O	-13%
COc1ccccc1N1CCN(CCCC(=O)c2ccc(F)cc2)CC1	4%
CC(C)COCC(CN(Cc1ccccc1)c1ccccc1)N1CCCC1 (stereo unspecified)	?
Cc1ccc(O)c(-n2nc3ccccc3n2)c1	-27%
COc1cc2c(cc1OC)OC(C)(C)C=C2	-10%
CCCCCCCCCCCCCCCC(=O)C(F)(F)F	-20%
C[C@H](N)C(=O)O	-16%
Cc1cccc2cc(CN(CC3CCCO3)C(=O)C3CC3)c(N(C)C)nc12 (stereo unspecified)	-1%
CC(C)(C)CC(C)(C)c1cc(Cc2cc(C(C)(C)CC(C)(C)C)cc(-n3nc4ccccc4n3)c2O)c(O)c(-n2nc3ccccc3n2)c1	21%
CCOC(=O)C[C@H]1c2cc(F)ccc2S(=O)(=O)N1c1cccc(OC)c1	?

Quoted from the listing.
COc1ccc2c(c1)OC/C(=C/c1ccc(OC)c(OC)c1)C2=O in EPAC2 antag has -13%
C[C@H](N)C(=O)O in EPAC2 antag has -16%

Other records.
SMILES	EPAC2 antag
CN[C@@H]1CCc2[nH]c3ccc(C(N)=O)cc3c2C1	-23%
NS(=O)(=O)C#Cc1ccccc1	-14%
CCN(CC)c1ncnc2c1ncn2[C@@H]1O[C@H](COP(=O)(O)OP(=O)(O)C(Br)(Br)P(=O)(O)O)[C@@H](O)[C@H]1O	5%
CC1CN(CCC(=O)NCc2ccc3ncccc3c2)Cc2cc(Cl)ccc2O1 (stereo unspecified)	-9%
OCC(O)C(O)C(O)C(O)C(O)CO (stereo unspecified)	-6%
C=CC1=C(C)/C(=C/c2[nH]c(Cc3[nH]c(/C=C4\NC(=O)C(C)=C4C=C)c(C)c3CCC(=O)O)c(CCC(=O)O)c2C)NC1=O	21%
O=S(=O)(c1ccccc1)N1CCC2(CCCN(c3ccncc3)C2)CC1	-21%
COC(=O)c1c(OCc2ccccn2)cc(=O)n2c1CCN(C(=O)c1n[nH]c3c1CCCC3)CC2	0%
COc1ccc(CN2CCc3nnc(CNC(=O)c4cc(C)oc4C)n3CC2)c2ccccc12	?
c1ccc(-c2csc(-c3nc4ccccc4[nH]3)n2)cc1	-15%
CCCCCCCC/C=C\CCCCCCCC(=O)OC[C@@H](O)[C@H]1OC[C@H](O)[C@H]1O	-19%
COc1ccc(CN2CCOc3ccc(CN4CCC(Oc5cccnc5)CC4)cc3C2)c(F)c1	3%
CN(C)c1ccc(-c2ccc3ncnc(-n4ccnc4)c3c2)cc1	-13%
O=C1c2ccccc2C(Cc2ccncc2)(Cc2ccncc2)c2ccccc21	?
CN(C)CCOC(c1ccccc1)c1ccccc1 (tested in a mixture with another compound)	-6%
O=c1c(-c2cccs2)nc2cnc(N3CCOCC3)nc2n1Cc1cccs1	6%
CSc1ncccc1C(=O)NCC1Cc2cc(-c3cnccn3)cc(Cl)c2O1 (stereo unspecified)	?
CCOC(=O)C1=C[C@@]2(CC)CCCN3CCc4c(n1c1ccccc41)C32 (stereo partly specified)	?
N#CCCn1c(=O)c(CCc2ccccc2)nc2cnc(N3CCOCC3)nc21	-1%
C[N+](C)(CCCCCC[N+](C)(C)C1c2ccccc2-c2ccccc21)C1c2ccccc2-c2ccccc21	15%
COc1ncccc1C(=O)N1CCOc2ccc(C(O)C(c3ccccc3)c3ccccc3)cc2C1 (stereo unspecified)	?
COc1cccc(-c2ccc3ncnc(N4CCOCC4)c3c2)c1	-35%
CN(C)c1ccc(-c2cncnc2-n2ccnc2)cc1	-7%
Nc1ncnc2c1ncn2[C@@H]1O[C@H](COP(=O)(O)OP(=O)(O)OP(=O)(O)O)[C@@H](O)[C@H]1O	-7%
COCCn1c(=O)c(-c2cccc(C#N)c2)nc2cnc(N3CCOCC3)nc21	-21%
O=C1CC[C@@H](O)CCN1CC[C@H](Sc1ccc(Br)cc1)c1ccccc1	?
O=c1n(CCCN2CCN(c3cccc(Cl)c3)CC2)nc2ccccn12	7%
O=C(CO)[C@@H](O)[C@H](O)[C@H](O)CO	9%
C[C@]12CC[C@@H](O)C[C@@H]1CC[C@@H]1[C@@H]2CC[C@]2(C)C=CC[C@@H]12	-17%
Cc1cc2nccc(/C=C/c3ccc(N(C)C)cc3)c2cc1C	10%
CC(=O)Nc1ccc(SC[C@H](Cc2ccccc2)N2CC[C@@H](C(C)(C)C)CCC2=O)cc1	?
COc1cc(N)c(NC(=O)/C=C/c2nc3cc(OC)c(OC)cc3[nH]2)cc1OC	-21%
O=C1CC[C@@H](C(=O)O)N1	?
COC(=O)C[C@H]1c2cc(C(F)(F)F)ccc2S(=O)(=O)N1Cc1ccc(OC)cc1	-9%
Cc1ccccc1C(=O)NC(C)c1nnc2n1CCN(Cc1ccccc1F)CC2 (stereo unspecified)	-6%
CCCCC(CC)COC(=O)c1ccccc1C(=O)O (stereo unspecified)	-20%[239 µM]
CCCCCCOC(=O)C1(O)CC2OC1(C)n1c3ccccc3c3c4c(c5c6ccccc6n2c5c31)C(=O)NC4 (stereo unspecified)	?
Clc1ccc(C(Cn2ccnc2)OCc2c(Cl)cccc2Cl)c(Cl)c1 (stereo unspecified)	?
Cc1cc2c(cc1Cl)N(C(=O)Nc1ccnc3ccccc13)CC2	1%
O=C1[C@H](CC[C@H](O)c2ccc(F)cc2)[C@@H](c2ccc(O)cc2)N1c1ccc(F)cc1	-28%
Cc1cc(C)nc(-c2cccc3c2OC(CNC(=O)C2CCOC2)C3)n1 (stereo unspecified)	-3%
CC(C)[C@@H](C)/C=C/[C@@H](C)[C@H]1CC[C@H]2/C(=C/C=C3\C[C@@H](O)CC[C@@H]3C)CCC[C@]12C	-19%
C=C[C@@H]1c2ccccc2N(S(=O)(=O)c2ccc(C)cc2)[C@H](c2ccc(OC(C)=O)cc2)C1(C#N)C#N	-19%
O=C(Cc1cscn1)N1CCOc2ccc(CN3CCN(c4ccccn4)CC3)cc2C1	-17%
CC(C(=O)O)c1cccc(Oc2ccccc2)c1 (stereo unspecified)	-19%
CCCCCCc1ccc(N2C[C@H](CCCCC)[C@@H](CC(=O)NCc3ccccc3)C2=O)cc1	?

Six of the compounds above, as a markdown table.
| canonical_smiles | EPAC2 antag |
| --- | --- |
| Clc1ccc(C(Cn2ccnc2)OCc2c(Cl)cccc2Cl)c(Cl)c1 (stereo unspecified) | ? |
| Cc1cc2c(cc1Cl)N(C(=O)Nc1ccnc3ccccc13)CC2 | 1% |
| O=C1[C@H](CC[C@H](O)c2ccc(F)cc2)[C@@H](c2ccc(O)cc2)N1c1ccc(F)cc1 | -28% |
| Cc1cc(C)nc(-c2cccc3c2OC(CNC(=O)C2CCOC2)C3)n1 (stereo unspecified) | -3% |
| CC(C)[C@@H](C)/C=C/[C@@H](C)[C@H]1CC[C@H]2/C(=C/C=C3\C[C@@H](O)CC[C@@H]3C)CCC[C@]12C | -19% |
| C=C[C@@H]1c2ccccc2N(S(=O)(=O)c2ccc(C)cc2)[C@H](c2ccc(OC(C)=O)cc2)C1(C#N)C#N | -19% |

A portion of the library; the hit share may differ from the screen's.
